Screens deposited in PubChem BioAssay by ICCB-Longwood Screening Facility, Harvard Medical School.
Sa growth 42C: S. aureus growth inhibition at 42 and 30 °C, primary screen, LtaS inhibitor project, RN4220, two temperatures. 0.53% of 170,000 active. OD600, 20 h, 42 °C; hits give low values. relative growth, % (concentration not given with the values);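 active = growth at 42 °C up to 50% and 20 or more points under that at 30 °C, or under 10% at both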;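 also: 300 nL library stock went into each well; scaled to the means of positive and negative controls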
HCMV NEC inh: inhibitors of HCMV UL50-UL53 interaction, biochemical, HTRF; AID 1918969, 2023; HCMV UL50-UL53 nuclear egress complex (human cytomegalovirus); 0.15% of 190,000 active; normalized percent inhibition; inhibition, % (no concentration beside the values);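 active = both replicates at 50% or more, plus weaker picks with an unusually low signal ratio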;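 also: stock transfer was 100 nL into about 20 µL; 0% = negative control wells and 100% = wells with untagged competitor protein; inactives centre near -12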
GIV Gai3 FP: inhibitors of GIV peptide binding to Galpha-i3, primary screen, biochemical, fluorescence polarization, FITC-GIV GBA peptide, rat Galphai3; Guanine nucleotide-binding protein G(i) subunit alpha-3 (Rattus norvegicus), P08753; 90 min; hits give low values; scaled: aluminum fluoride 0%, vehicle 100%; percent of control (FP), % (no concentration beside the values); 0.42% of 210,000 active; AID 1224905, 2016;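 active = replicate mean at 85% of control or lower, very high polarization wells dropped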;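 also: wells of about 15 µL received 100 nL stock; the first replicate is given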
Target sequence (P08753 whole entry, looked up): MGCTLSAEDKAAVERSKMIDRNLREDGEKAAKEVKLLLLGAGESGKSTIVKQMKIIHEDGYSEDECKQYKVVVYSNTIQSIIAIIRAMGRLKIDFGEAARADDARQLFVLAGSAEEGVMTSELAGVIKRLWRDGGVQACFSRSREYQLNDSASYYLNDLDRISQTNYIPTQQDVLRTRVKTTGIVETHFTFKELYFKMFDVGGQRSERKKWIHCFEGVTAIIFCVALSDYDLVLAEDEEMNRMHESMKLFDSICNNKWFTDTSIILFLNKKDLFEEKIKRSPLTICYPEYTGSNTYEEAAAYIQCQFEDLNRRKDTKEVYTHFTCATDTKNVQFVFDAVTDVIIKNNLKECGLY
Sa growth 42C second temp: further read-out of Sa growth 42C, marked with its call; relative growth, %; measured here: growth at 30 °C;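 optical density after 20 h as mean of two plates; 100% = untreated growth and lower means inhibition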
* = called active by the depositor; . = no result given; & = joins results of further samples.

SMILES | Sa growth 42C | Sa growth 42C second temp | HCMV NEC inh | GIV Gai3 FP
COc1ccc(OCc2nnc3n2N=C(c2ccc(Br)cc2)CS3)cc1 | 93 | 74 | . | 98
O=C(OCc1ncc(-c2ccccc2)o1)C1CC2CCCC(C1)C2=O (centres undefined) | 96 | 93 | -8 | .
O=C(NC1=NCCS1)C12CC3CC(CC(C3)C1)C2 | 96 | 99 | -4 | .
CCOC(=O)c1c(NC(C)=O)c2c3c(sc2n1Cc1nc(-c2ccccc2OCC)oc1C)CCCC3 | 108 | 95 | -4 | 103
Nc1nc2ccc(C(=O)N3CCCCC3)cc2s1 | 98 | 86 | -4 | 93
O=C(NCCc1ccc(S(=O)(=O)N2CCCC2)cc1)c1cccc2ccccc12 | 103 | 76 | -19 | .
O=C1CCCC2=C1C(c1ccc(O)cc1)C1=C(CCCC1=O)N2 | 99 | 87 | -20 | 108
N#Cc1ccccc1CSc1nc(N)cc(N)n1 | 87 | 68 | 16 | 99
CNC(=O)C1CCC(Cn2c(=O)c3sccc3n(CC(=O)NCc3ccccc3)c2=O)CC1 (centres undefined) | 92 | 93 | . | 102
CCOC(=O)c1scc(-c2ccc(C)cc2)c1S(=O)(=O)Nc1cc(OC)ccc1OC | 102 | 95 | . | 105
COC(=O)c1ccc(C(=S)N2CCCCC2)cc1 | 104 | 104 | -1 | 96
CC(C)Cn1c(SCC(=O)Nc2sccc2C#N)nnc1-c1ccccc1F | 102 | 87 | 5 | .
CSc1ccccc1-n1nnnc1SCCSc1ccccc1-n1nnnc1SC | 116 | 94 | -13 | 101
CC(C)(C)NS(=O)(=O)c1ccc(S(=O)(=O)N2CCCC2)cc1 | 115 | 103 | -5 | .
CCN(Cc1cc2ccccc2[nH]c1=O)S(C)(=O)=O | . | . | -6 | 103
O=C(NCC1CCCCC1)c1ccc2ncsc2c1 | 86 | 94 | 14 | .
Cc1cccc2c3c([nH]c12)CCNC3 | 116 | 95 | 10 | 102
Cc1nc(N)ccc1I | 85 | 91 | -26 | .
Cc1cccc(Nc2ccccc2C(=O)O)c1C | 95 | 81 | -40&-28&4&-15&-36 | 96
CCOCCCn1c(SCC(=O)Nc2ccc(C(C)C)cc2)nc2c(sc3ccccc32)c1=O | 91 | 100 | . | 100
COc1ccc(-n2c(C)cc(CNS(=O)(=O)c3ccc(OC)c(OC)c3)c2C)cc1 | . | . | -17 | 125
COc1cc(Nc2ncc3c(n2)CCN(S(=O)(=O)c2cccc4nsnc24)C3)cc(OC)c1 | . | . | -59 | 107
COc1ccc(S(N)(=O)=O)cc1OC | 122 | 89 | 0 | .
O=c1nc(N2CCCCCC2)nc(N2CCCCCC2)[nH]1 | 107 | 89 | -2 | 99
Cc1ccc(C(=O)CN(c2nc3nc(C)cc(C)n3n2)S(=O)(=O)c2ccc(C)cc2)cc1 | . | . | -25 | 108
(listing goes on)
SMILES | Sa growth 42C | Sa growth 42C second temp | HCMV NEC inh | GIV Gai3 FP
O=C(NC1CC1)c1cc(Cl)nc2ccccc12 | 98 | 94 | 9 | .
CC12CN3CC(C)(CN(C1)C3c1ccc(OCc3ccccc3)cc1)C2 (centres undefined) | . | . | -17 | 101
O=C(/C=C/c1ccc(Cl)cc1)C1(O)CCCCC1 | 88 | 81 | -7 | .
COc1ccc(NC(=O)CSC2=Nc3ccccc3C3=NC(CC(=O)NCCc4ccccc4)C(=O)N23)cc1 (centres undefined) | 66 | 27 | . | 104
CC(C)/C=N/NC(=O)c1ccc2c(c1)NC(=O)C(C)(C)O2 | 83 | 80 | -32 | 100
CSC1=NC=C(C#N)C2=NC(c3ccc(Cl)cc3)NN12 (centres undefined) | 95 | 87 | 15 | 106
Cc1ccc2cc3c(nc2c1)N(C(=O)CN1C(=O)c2ccccc2C1=O)CC3 | . | . | 2 | 107
COC(=O)c1ccc(NC(=O)CSc2nc(=O)cc(N)n2-c2ccccc2)cc1 | 86 | 66 | . | 106
CSc1n[nH]c(NC(=O)Nc2ccccc2)c1S(=O)(=O)c1ccc(Cl)cc1 | 97 | 78 | -14 | 105
Cc1cc2c(cc1S(=O)(=O)CCC(=O)N1CCCC1)OCC(=O)N2 | 94 | 79 | -28 | 100
Cc1ccc(-c2cc(NC(=O)c3oc4cc(C)cc(C)c4c3C)on2)cc1 | . | . | -34 | 102
Cc1cc(C(=O)COC(=O)/C=C/c2ccccc2)c(C)n1-c1nccs1 | 82 | 86 | -9 | .
O=C(c1n[nH]c2c1CCCC2)n1ccnc1 | 67 | 86 | . | 96
S=C=Nc1ccc2c(c1)OCCO2 | 106 | 87 | 1 | .
Cc1nc(CSc2ncnc3sc4c(c23)CCC4)cs1 | 135 | 94 | -13 | 108
CCn1c(SCC(=O)Nc2cc(Cl)ccc2OC)nc2c([nH]c3ccccc32)c1=O | 81 | 85 | . | 102
CCOC(=O)c1cnc2ccc(OC)cc2c1NCCc1ccc(OC)c(OC)c1 | 101 | 93 | -44 | 101
C=C1C2(C(=O)Nc3cc(C)on3)CCC(C2)C1(C)C (centres undefined) | 102 | 99 | -6 | 106
CC(C)N(Cc1nnc(-c2ccccc2)o1)C(=O)c1ccccc1 | 101 | 87 | -14 | .
CCCc1c(C)c(C#N)c2[nH]c3ccccc3n2c1=O | 57 | 22 | -37 | 104
Cc1cc(C(=O)NCC(C)c2ccccc2)n[nH]1 (centres undefined) | 102 | 92 | 8 | 100
CCOC(=O)c1c(-c2ccccc2)oc2c1cc(OC(=O)c1cccc([N+](=O)[O-])c1)c1ccccc12 | . | . | -9 | 99
O=C(CN1C(=O)/C(=C/c2ccccc2F)Sc2ccccc21)N1CCCC1 | 107 | 94 | -21 | 104
CN(C)C(=O)CCc1nc(-c2ccc(C(C)(C)C)cc2)no1 | 86 | 96 | -10 | 96
CCCS(=O)(=O)N1CCCc2cc(NC(=O)c3c(-c4ccccc4Cl)noc3C)ccc21 | . | . | 2 | 102
Additional compounds follow.
SMILES | Sa growth 42C | Sa growth 42C second temp | HCMV NEC inh | GIV Gai3 FP
COc1ccc(OC)c(N=Cc2cc(I)cc(C)c2O)c1 | 105 | 88 | . | 148
O=S(=O)(CCSc1ccc(C(F)(F)F)cn1)CCSc1ccc(C(F)(F)F)cn1 | 97 | 86 | -43 | 102
Cc1ccc(NC(=O)C(=O)NCCN2CCNCC2)cc1 | . | . | 2 | 105
O=C(/C=C/c1ccc(Br)cc1)Nn1c(-c2ccc(F)cc2)nc2ccccc2c1=O | . | . | -20 | 104
CCn1c(=O)c(=O)[nH]c2cc(C(=O)NC(C)c3ccc(S(N)(=O)=O)cc3)ccc21 (centres undefined) | 103 | 97 | -15 | .
COc1cc(=O)n(-c2ccc(F)cc2)nc1C(=O)Nc1ccccc1 | . | . | -31 | 103
Cc1ccc(Nc2nc(N)nc(CC(=O)CSc3nc4ccccc4s3)n2)cc1 | 103 | 65 | . | 103
Cc1nc(-n2nc(C)c(Cc3ccc4c(c3)OCO4)c2C)sc1C(=O)Nc1cccc(Cl)c1 | 100 | 81 | -8 | 105
CN(CC(=O)Nc1ccccc1C(=O)NC1CC1)Cc1ccco1 | 106 | 89 | -21 | .
O=C(Nc1cccc(Cl)c1)N1Cc2ccccc2C(N2CCOCC2)c2ccccc21 (centres undefined) | . | . | -10 | 102
CCN(c1cccc(C)c1)S(=O)(=O)c1nnc(NC(=O)c2ccccc2Cl)s1 | 72 | 31 | -16 | 102
CCOc1ccc(NC(=O)N2CCN(Cc3nc(-c4ccccc4)oc3C)CC2)cc1 | . | . | -13 | 105
CCc1nn2c(=O)cc(COC(=O)c3ccccc3NC(=O)COc3ccc(C)c(C)c3)nc2s1 | 105 | 90 | . | 105
Cc1ccc(Cl)cc1-n1ncc2c(NCCCc3ccccc3)ncnc21 | 68 | 73 | . | 108
C=CCn1c(SCC(=O)c2ccccc2)nc2c(c1=O)C(C)(C)Cc1ccccc1-2 | 86 | 88 | -14 | .
O=C(Cn1cnc2c(nc3n2CCCCC3)c1=O)NCc1ccco1 | 95 | 90 | -2 | 102
COc1ccccc1NC(=O)NCC(c1ccco1)N(C)C (centres undefined) | 85 | 97 | -2 | .
O=C(Nc1ccc2c(c1)OCO2)c1nnc(C2CCCN2C(=O)C2CCC2)s1 (centres undefined) | . | . | -28 | 120
C=CCC1NC(C)(C)Cc2ccccc21 (centres undefined) | 102 | 87 | -15 | .
Cc1cc(-n2c(C)cc(C(=O)Cn3cc(S(=O)(=O)N(C)C)ccc3=O)c2C)no1 | 96 | 94 | -2 | .
COc1ccc2c(c1)c1c(c(=O)n(CCc3ccccc3)c(=O)n1Cc1cccc(Cl)c1)n2C | 97 | 89 | . | 108
Cc1ccc(N(Cc2cc3ccc(C)cc3[nH]c2=O)S(C)(=O)=O)cc1 | . | . | 38 | 104
CCOC(=O)c1c(C)oc2nc(C)nc(N3CCN(c4cc(Cl)ccc4C)CC3)c12 | 93 | 84 | . | 101
CCCCn1nnnc1COC(=O)[C@@H](NS(=O)(=O)c1cccc(Cl)c1)C(C)C | 90 | 81 | 0 | .
CN(C(=O)c1ccccc1O)C1CCCCC1 | 98 | 102 | 8 | 105

20 entries from above, with two lines to a compound.
Values run as follows: Sa growth 42C | Sa growth 42C second temp | HCMV NEC inh | GIV Gai3 FP
> N#Cc1ccccc1CSc1nc(N)cc(N)n1
  87 | 68 | 16 | 99
> CNC(=O)C1CCC(Cn2c(=O)c3sccc3n(CC(=O)NCc3ccccc3)c2=O)CC1 (centres undefined)
  92 | 93 | . | 102
> CCOC(=O)c1scc(-c2ccc(C)cc2)c1S(=O)(=O)Nc1cc(OC)ccc1OC
  102 | 95 | . | 105
> COC(=O)c1ccc(C(=S)N2CCCCC2)cc1
  104 | 104 | -1 | 96
> CC(C)Cn1c(SCC(=O)Nc2sccc2C#N)nnc1-c1ccccc1F
  102 | 87 | 5 | .
> CSc1ccccc1-n1nnnc1SCCSc1ccccc1-n1nnnc1SC
  116 | 94 | -13 | 101
> CC(C)(C)NS(=O)(=O)c1ccc(S(=O)(=O)N2CCCC2)cc1
  115 | 103 | -5 | .
> CCN(Cc1cc2ccccc2[nH]c1=O)S(C)(=O)=O
  . | . | -6 | 103
> O=C(NCC1CCCCC1)c1ccc2ncsc2c1
  86 | 94 | 14 | .
> Cc1cccc2c3c([nH]c12)CCNC3
  116 | 95 | 10 | 102
> Cc1nc(N)ccc1I
  85 | 91 | -26 | .
> Cc1cccc(Nc2ccccc2C(=O)O)c1C
  95 | 81 | -40&-28&4&-15&-36 | 96
> CCOCCCn1c(SCC(=O)Nc2ccc(C(C)C)cc2)nc2c(sc3ccccc32)c1=O
  91 | 100 | . | 100
> COc1ccc(-n2c(C)cc(CNS(=O)(=O)c3ccc(OC)c(OC)c3)c2C)cc1
  . | . | -17 | 125
> COc1cc(Nc2ncc3c(n2)CCN(S(=O)(=O)c2cccc4nsnc24)C3)cc(OC)c1
  . | . | -59 | 107
> COc1ccc(S(N)(=O)=O)cc1OC
  122 | 89 | 0 | .
> O=c1nc(N2CCCCCC2)nc(N2CCCCCC2)[nH]1
  107 | 89 | -2 | 99
> Cc1ccc(C(=O)CN(c2nc3nc(C)cc(C)n3n2)S(=O)(=O)c2ccc(C)cc2)cc1
  . | . | -25 | 108
> O=C(NC1CC1)c1cc(Cl)nc2ccccc12
  98 | 94 | 9 | .
> CC12CN3CC(C)(CN(C1)C3c1ccc(OCc3ccccc3)cc1)C2 (centres undefined)
  . | . | -17 | 101

The list continues:
SMILES | Sa growth 42C | Sa growth 42C second temp | HCMV NEC inh | GIV Gai3 FP
COc1ccccc1CNc1ccc(-c2nc(-c3cccnc3)no2)cc1[N+](=O)[O-] | 91 | 83 | -29 | 103
CC(C)(C)NC(=O)Cc1ccc(S(=O)(=O)N2CCCC2)s1 | 75 | 87 | -22 | .
CN(Cc1ccccc1)S(=O)(=O)c1ccc2c(c1)oc(=O)n2C | . | . | 5 | 96
CN1C(=O)C(=Nc2cccc(Br)c2)c2ccccc21 | 90 | 92 | -5 | .
CC(=O)Nc1cccc(-c2nc3ccccc3s2)c1C | 99 | 82 | -14 | 101
CCN1C(=O)C(O)(C(C)C(=O)c2ccccc2)c2ccccc21 (centres undefined) | 105 | 100 | -27 | 103
COc1cc(OC)cc(OC(=O)c2cc(NC(C)=O)cc(NC(C)=O)c2)c1 | 105 | 88 | -15 | .
COc1cccc(-n2c(N)cc(=O)n(Cc3ccccc3)c2=O)c1 | 97 | 99 | 0 | 110
Cc1nn(Cc2ccccc2)c2sc(C(=O)N3CCCC3)cc12 | 116 | 78 | -6 | .
O=c1oc(-c2ccccn2)nc2ccccc12 | 148 | 87 | -12 | .
CN(C)CC1=C(Cl)c2ccccc2S1(=O)=O | 109 | 96 | 2 | 107
Cc1ccc(Cl)cc1NC(=O)CC1NC2CCCCC2NC1=O (centres undefined) | 86 | 84 | -37 | 100
CCOC(=O)c1c(NC(=O)C(C)Sc2cn(CCNC(=O)c3c(F)cccc3F)c3ccccc23)sc2c1CCC2 (centres undefined) | 117 | 85 | -16 | 102
Cc1nonc1OCCNC(=O)C12CC3CC(CC(C3)C1)C2 | 121 | 87 | -12 | 103
COc1ccc(OC)c(CNC(=O)CCc2c(C)nc3c(c2C)c(=O)n(C)c(=O)n3C)c1 | 113 | 91 | -43 | 99
